# Rango-impB inh = qHTS Assay for Inhibitors of Rango (Ran-regulated importin-beta cargo) - Importin beta complex formation. Rango CFP/YFP FRET sensor + importin beta, 45 min. actives 0.031% (n = 340,000). Potency, µM (highest dose often 92.2 µM), inactives show top-dose inhibition of complex formation. AID 540263, 2011; active = rising FRET ratio curve, often small or poorly fitted; inconclusive = mostly compound fluorescence or quenching in the first reads; inactive = flat curves in all reads;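 note: potency is the fitted concentration of half-maximal effect; 0% = DMSO wells and 100% = buffer wells lacking importin beta; nearly all actives have a fitted effect of over 15% in size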
#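 FRET biosensor (snurportin 1 IBB flanked by EYFP and cerulean), 50 nM, with compound 5 min, then 0.125 microM importin beta in PBS, 1 mM DTT, 0.02% Tween-20, 0.1% BSA. CFP/YFP ratio read after 45 min at room temperature; pre-read flags interference.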
# miR-21 FLuc = qHTS Assay for Modulators of miRNAs and/orActivators of miR-21 | Potency, µM (doses to about 38.3 µM), without a hit: top-dose reporter change, positive = more light | 340,000 tested, under 10 active | HeLa miR-21 FLuc reporter, luciferase, 48 h; active = well fitted rising curve with a large enough effect; inconclusive = small, poorly fitted or top-dose-only effect; inactive = no such curve, though single readings can be large or run the other way;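 note: % of control where 0% means no effect; miR-21 action dims this reporter so a rising signal means less miR-21 action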
#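 Luminescence from a firefly luciferase reporter carrying a miR-21 binding site downstream, stably expressed under a CMV promoter in HeLa cells that make miR-21 endogenously, reports miRNA modulation after 48 h compound exposure up to approximately 40uM final.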
# GLA inh pH 4.5 = qHTS Assay for Inhibitors of Human alpha-Galactosidase at pH 4.5; AID 1467, 2008; activity change, negative = inhibition, % at 105 µM; 230,000 tested, under 10 active; purified enzyme, 4-MU-alpha-Gal fluorescence, pH 4.5; Alpha-galactosidase A (Homo sapiens), P06280; inconclusive = small, poorly fitted or top-dose-only inhibition, or a rising curve; inactive = flat fitted curve, though single readings scatter; no compound was filed as active;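 note: 0% = full activity with enzyme and -100% = basal without enzyme; dose as in the result columns while the protocol names 77 µM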
# Target sequence (P06280 whole entry, looked up): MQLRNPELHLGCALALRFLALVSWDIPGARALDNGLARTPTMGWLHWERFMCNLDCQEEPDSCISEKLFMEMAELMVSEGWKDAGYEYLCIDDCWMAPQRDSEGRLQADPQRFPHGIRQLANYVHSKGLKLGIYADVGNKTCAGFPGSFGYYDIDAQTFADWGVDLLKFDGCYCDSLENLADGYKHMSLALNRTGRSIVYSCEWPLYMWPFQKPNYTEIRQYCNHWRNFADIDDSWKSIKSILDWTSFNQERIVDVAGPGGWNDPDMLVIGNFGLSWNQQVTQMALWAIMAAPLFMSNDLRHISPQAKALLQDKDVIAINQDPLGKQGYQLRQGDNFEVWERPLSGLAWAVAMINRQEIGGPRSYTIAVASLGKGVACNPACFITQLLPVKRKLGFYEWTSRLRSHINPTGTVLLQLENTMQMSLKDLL
# Rango dissoc inh = qHTS Assay for Inhibitors of RanGTP induced Rango (Ran-regulated importin-beta cargo) - Importin beta complex dissociation | Potency, µM (series often up to 46.1 µM), inactives show top-dose activity change, negative = inhibition | actives 0.071% (n = 340,000) | Biochemical FRET Rango-importin beta, RanGTP-induced dissociation; active means falling FRET ratio curve, often poorly fitted, with flat reads before Ran was added; inconclusive means other falling curves, or compound fluorescence or quenching; inactive means flat or rising ratio curve;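 note: potency is the fitted concentration of half-maximal effect; % of control where 0% means no effect; nearly all actives have a fitted effect of over 45% in size; -100% = wells without RanGTP and RCC1; the record marks most hits as doubtful in a second field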
#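 Rango (0.1 uM)–importin beta (0.25 uM) complex; RanGTP-RCC1 trigger; 45 min RT; CFP/YFP FRET read.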
# Active calls of the source: *; u = inconclusive; x = no result given; & = joins results of further samples; [ ] = another dose, or the depositor's remark.
SMILES,Rango-impB inh,miR-21 FLuc,GLA inh pH 4.5,Rango dissoc inh
CCOc1cc2nc3c4ccccc4n(C)c3nc2cc1OCC,u,-14.5%,6.7,u
Cc1ccc(C(C)C)c(OCC(=O)Nc2ccc(N3CCOCC3)cc2N2CCOCC2)c1,-0.5%,x,x,0.7%
N=C(N)SCc1cn(-c2ccccc2)nc1-c1ccc(Br)cc1,-0.2%,u,2.1,-6.5%
COC(=O)Nc1nc2ccc(C(=O)c3cccs3)cc2[nH]1,-1.8%,x,5.7&-5.9&-2.2&-1.7&-1.5,6.2%
CNCCCNC(=O)c1ccc(/C=N/O)nc1,-2.2%,0.9%,-0.8[21.1 µM],10.3%
CCN(Cc1ccncc1)Cc1ccc(Br)cc1,10.0%,-4.4%,x,-21.7%
CC(OC(=O)c1ccc(OCC2CCCO2)cc1)C(=O)N(C)Cc1ccccc1 (stereo not drawn),-2.8%,x,x,-7.0%
O=C(Cn1cnc2c(nnn2Cc2ccccc2)c1=O)Nc1ccc2c(c1)OCCO2,-0.9%,-0.3%,x,-0.5%
CCn1cc(C(=O)NCCc2ccccc2)c(=O)c2cc(F)c(N3CCN(C)CC3)cc21,-2.8%,-20.7%,-2.2,6.3%
Cc1ccc([N+](=O)[O-])cc1NC1CC(O)C(CO)O1 (stereo not drawn),4.7%,-3.6%,-1.2,2.7%
Cc1ccc(NC(=O)C(C)OC(=O)c2n[nH]c3ccccc23)cc1 (stereo not drawn),3.6%,x,x,-5.2%
CC(NC(=O)c1ccc(CS(C)(=O)=O)cc1)C1CC2CCC1C2 (stereo not drawn),-1.3%,-8.1%,x,-6.0%
COc1ccc(NC(=S)N/N=C/c2ccc(F)c(F)c2)cc1,3.2%,-12.7%,5.2,-0.6%
O=C(CN1CCN(c2ccc([N+](=O)[O-])cc2)CC1)Nc1nccs1,0.1%,-0.7%,4.7,-0.2%
CC(C)(C)N(Cc1ccccc1)C(=O)COC(=O)c1ccc([N+](=O)[O-])o1,0.3%,x,x,10.2%
CN(C)CC1CCCCC1OC(=O)/C=C/c1ccccc1 (stereo not drawn),0.1%,1.0%,-0.8,-8.1%
CCN(CC)C(=O)N(CC)Cc1ccccc1,1.5%,1.1%,-22.4,-5.7%
O=C(c1ccncc1)N1CCN(S(=O)(=O)c2cccc([N+](=O)[O-])c2)CC1,-1.4%,x,x,-11.2%
CC(=O)N1c2ccc(S(=O)(=O)NCCC(=O)N3CCCC(C)C3)cc2CC1C (stereo not drawn),4.6%,-0.3%,x,9.5%
COc1ccccc1NC(=O)COc1ccc(/C=N/n2cnnc2)cc1OC,1.1%,-17.2%,0.9,10.1%
COc1cccc(-c2cccc(NC(=O)C3CCN(Cc4nccs4)CC3)c2)c1,2.1%,-0.2%,x,-17.2%
CCCOc1ccc(NC(=O)C2CC(=O)N(C(C)C)C2)cc1 (stereo not drawn),-1.6%,-5.7%,3.7,4.3%
O=C(O)C(Cc1cn[nH]n1)=NO,-0.7%,0.3%,-4.0,1.6%
CCOc1ccc(N(CC(=O)NCc2ccccc2)S(C)(=O)=O)cc1,2.7%,-36.5%,5.2,2.2%
O=C(COC(=O)C1CCN(S(=O)(=O)c2ccc3c(c2)OCCO3)CC1)Nc1ccc(C(F)(F)F)cc1,2.3%,-6.9%,-12.2,-0.5%
# Continued.
SMILES,Rango-impB inh,miR-21 FLuc,GLA inh pH 4.5,Rango dissoc inh
O=C(CSc1nnc(-c2cccnc2)o1)Nc1ccccc1F,0.2%,x,x,-12.5%
Cc1cc2[nH]c(=O)c(=O)[nH]c2cc1S(=O)(=O)N(C)C1CCCCC1,10.8%,0.6%,x,17.0%
CNc1nc(SC)n(C)c(=O)c1N=O,x,0.2%,-2.1,x
CCn1c(SCc2ccccc2)nnc1C1CCCCC1,-3.7%,-2.6%,-0.4,17.7%
O=C1NCCN1C(=O)N(c1ccccc1)c1ccccc1,-3.8%,-5.2%,-0.5,17.0%
COc1ccccc1NC(=O)CSc1nnc(-c2ccco2)o1,4.8%,-9.0%,1.7,14.5%
O=C(Nc1ccccc1N1CCCCC1)c1cccc(Cl)c1,2.2%,-5.9%,x,26.2%
Cn1c(=O)c2cc(S(=O)(=O)NC(C(=O)Nc3cccc(F)c3)c3ccccc3)ccc2n(C)c1=O (stereo not drawn),0.3%,1.8%,-8.3,2.8%
O=C(CSc1nnnn1C1CCCCC1)NCc1cccc(C(=O)O)c1,0.4%,-1.8%,1.8,-8.8%
COc1cc(C(=O)NCCN2C(=O)S/C(=C\c3cccs3)C2=O)cc(OC)c1OC,1.4%,-11.9%,-18.6,1.8%
CCOC(=O)c1c(C)oc2cc(Br)c(OC(=O)N3CCOCC3)cc12,-1.4%,-1.6%,3.4,-2.8%
CCC(C)NC(=O)C(Cc1ccccc1)NS(=O)(=O)c1cccc2nsnc12 (stereo not drawn),1.1%,-3.5%,-4.3,4.4%
CCOCCc1nnc(N)s1,0.0%,-4.4%,1.9,2.3%
O=C(CCNC(=O)c1ccc([N+](=O)[O-])cc1)NCc1ccccc1,3.4%,x,x,-10.4%
COCCN(C(=O)COC(=O)C1CCC(C(C)(C)C)CC1)c1c(N)n(Cc2ccccc2)c(=O)[nH]c1=O (stereo not drawn),-1.0%,x,x,-11.5%
Cc1cc(Oc2ccc(C)c(Cl)c2)nc(SCC(=O)c2ccccc2)n1,0.3%,-0.6%,2.8,1.3%
COc1ccccc1/C=C(\C#N)C(=O)c1cccn1C,4.4%,1.4%,x,3.8%
Cc1cc(=O)oc2cc(NC(=S)NCc3ccccn3)ccc12,0.6%,-45.5%,9.6,-3.6%
CCCc1ccc(C#N)c(SC2CC(=O)N(c3ccc(OC)cc3)C2=O)n1 (stereo not drawn),-0.6%,-6.4%,-10.7,8.0%
Cc1cc(N=Cc2c(O)ccc3ccccc23)no1,u,-0.1%,0.4,u
O=C(NCCCN1CCOCC1)C(=O)NCc1ccccc1,-1.6%,1.2%,3.3,0.0%
Cc1cc2nc(SCCOC(=O)Nc3ccc(Cl)cc3)nc(C)c2cc1C,u,-3.2%,1.8,1.4%
COc1cc(C2/C(=C(\O)c3ccc4c(c3)CC(C)O4)C(=O)C(=O)N2CCCn2ccnc2)ccc1O (stereo not drawn),u,-0.5%,-0.7,0.1%
C=CCn1c(SCc2ccc(C(=O)O)cc2)nc2sc(C)c(C)c2c1=O,-1.5%,-12.8%,-1.5,-9.0%
Nc1ccc2nc(-c3ccccc3)sc2c1,u,8.1%,u,u
# Other entries:
SMILES,Rango-impB inh,miR-21 FLuc,GLA inh pH 4.5,Rango dissoc inh
COc1ccccc1C(c1nnnn1Cc1ccccc1)N1CCN(C2CCCC2)CC1 (stereo not drawn),0.7%,-1.5%,-1.8,-8.5%
CCN(CC)S(=O)(=O)c1cccc(NC(=O)c2ccc(S(=O)(=O)N3CCCC3)cc2)c1,-0.6%,x,x,-1.0%
C/C=C/C(=O)N1CC2(CC(c3cccc(NC(=O)COc4ccc(Cl)cc4)c3)=NO2)C[C@@H]1C(N)=O (stereo partly drawn),3.0%,6.7%,-3.7,-2.2%
CCOC(=O)C1=NN(c2ccc(Cl)cc2)C(=O)C1,-2.7%,-64.9%,3.9,7.0%
O=c1cc(C(F)(F)F)nc(-c2ccccc2OC(F)(F)F)[nH]1,-1.9%,1.9%,1.1,-1.1%
COc1ccccc1Nc1cc(C(=O)NCCCN2CCOCC2)c2ccccc2n1,1.7%,3.5%,-1.9,7.3%
COc1ccc(OC)c(NC(=O)C(C)SCc2nc3sc(C)c(C)c3c(=O)[nH]2)c1 (stereo not drawn),-0.2%,x,x,12.0%
O=C(NNC(=O)c1ccccc1OCc1ccc(F)cc1)c1ccncc1,0.0%,x,x,-19.8%
CC(C)Cc1csc(NC(=O)c2ccc(F)cc2)c1C(=O)O,-0.1%,19.2%,-6.6,-2.4%
COc1ccc(S(=O)(=O)N2CCOC2CNC(=O)C(=O)NCc2ccncc2)cc1C (stereo not drawn),-2.6%,x,x,0.2%
CC(=O)c1ccc(N2CCN(C(=O)c3ccc(S(=O)(=O)NCc4ccco4)cc3)CC2)cc1,0.7%,x,x,-5.4%
COC(=O)c1ccc(CN(c2ccccn2)S(=O)(=O)c2ccccc2)cc1,0.0%,-3.7%,4.7,-4.8%
CCN(CC)CC(C)CNC(=O)CN1C(=O)CSc2ccc(S(=O)(=O)N3CCOCC3)cc21 (stereo not drawn),-3.9%,0.4%&-12.1%,1.3,1.9%
CCOc1ccc(NC(=O)Cc2ccc(S(=O)(=O)N3CCOCC3)s2)cc1OCC,-0.7%,0.4%,x,-6.9%
Cc1cccc(S(=O)(=O)c2c(N)n(/N=C/c3ccccc3)c3nc4ccccc4nc23)c1,-1.3%,-2.4%,5.3,0.3%
CCn1ncc(-c2csc(N)n2)c1C,-2.9%,-41.0%,-1.9,-5.1%
CCC(C)NC(=O)CNC(=S)N(Cc1ccccc1F)C1CCCCC1 (stereo not drawn),-3.6%,6.4%,0.5,-4.9%
CCC(C)N(C(=O)CSc1nncn1C)C1CCS(=O)(=O)C1 (stereo not drawn),3.6%,x,x,-4.3%
CCOc1ccc(-n2cccc2C=O)cc1,-1.8%,-24.0%,-7.2,u
CC(=O)c1cccc(NS(=O)(=O)c2ccc(-c3cc(C)no3)s2)c1,-1.6%,11.8%,x,-10.9%
COc1ccc(S(=O)(=O)N2CCC(C(=O)NCC3CCCO3)CC2)cc1C (stereo not drawn),-3.1%,2.5%,0.4,3.9%
COc1ccc2ccccc2c1-c1sc(Nc2ccccc2)n[n+]1-c1ccc(F)cc1,-0.9%,u,x,-5.4%
Cc1ccc(-n2c(Cc3ccccc3)nnc2SCC(=O)NNC(=O)Cc2ccccc2)cc1,-3.1%,-2.0%,11.0,-6.8%
NC(=O)CN1CCN(c2cccc(Cl)c2)CC1,4.3%,0.2%,-12.8,8.9%
CCOC(=O)N1N=C(c2ccc(C)cc2)CC1(O)C(F)(F)F (stereo not drawn),-4.6%,-16.6%,1.2,0.3%

# Reprinted from the part before: six compounds, then new ones.
SMILES,Rango-impB inh,miR-21 FLuc,GLA inh pH 4.5,Rango dissoc inh
CC(=O)c1cccc(NS(=O)(=O)c2ccc(-c3cc(C)no3)s2)c1,-1.6%,11.8%,x,-10.9%
COc1ccc(S(=O)(=O)N2CCC(C(=O)NCC3CCCO3)CC2)cc1C (stereo not drawn),-3.1%,2.5%,0.4,3.9%
COc1ccc2ccccc2c1-c1sc(Nc2ccccc2)n[n+]1-c1ccc(F)cc1,-0.9%,u,x,-5.4%
Cc1ccc(-n2c(Cc3ccccc3)nnc2SCC(=O)NNC(=O)Cc2ccccc2)cc1,-3.1%,-2.0%,11.0,-6.8%
NC(=O)CN1CCN(c2cccc(Cl)c2)CC1,4.3%,0.2%,-12.8,8.9%
CCOC(=O)N1N=C(c2ccc(C)cc2)CC1(O)C(F)(F)F (stereo not drawn),-4.6%,-16.6%,1.2,0.3%
CCCn1nc(C(=O)NC2CC2)c2ccccc2c1=O,-1.5%,x,x,-0.3%
COc1ccc2[nH]c3c(c2c1)CCN1C(=O)C(CC(=O)NCCN2CCOCC2)C[C@H](C(=O)N(C(C)C)C(C)C)[C@@]31C (stereo partly drawn),0.4%,x,x,6.5%
c1ccc(CNn2c(N3CCOCC3)nc3ccccc32)cc1,0.0%,-7.9%,-22.3,-10.3%
c1ccc(CNc2ccc(N3CCOCC3)cc2)cc1,-3.5%,x,x,-22.3%
O=C(NCCCN1CCCC1)Nc1ccccc1[N+](=O)[O-],-0.3%,-3.4%,x,-8.6%
O=C(CSc1nnc(-c2ccco2)n1Cc1ccco1)NCc1ccccc1,-1.7%,-3.5%,-2.7,-16.8%

# A portion taken from the entries so far:
SMILES,Rango-impB inh,miR-21 FLuc,GLA inh pH 4.5,Rango dissoc inh
CCOc1ccc(NC(=O)Cc2ccc(S(=O)(=O)N3CCOCC3)s2)cc1OCC,-0.7%,0.4%,x,-6.9%
Cc1cccc(S(=O)(=O)c2c(N)n(/N=C/c3ccccc3)c3nc4ccccc4nc23)c1,-1.3%,-2.4%,5.3,0.3%
CCn1ncc(-c2csc(N)n2)c1C,-2.9%,-41.0%,-1.9,-5.1%

# Compound activity from PubChem.

# The list is partial; count on the stated rates, not on these rows.
